NOMO-1 viab: NOMO-1 AML cell viability reduction, primary screen, STK33 inhibitor project, CellTiter-Glo luminescence. NOMO-1 AML viability, 72 h. 37,000 tested, 7.5% active. inhibition, % (concentration not given with the values);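 active = most replicates above 80%; inconclusive = exactly half above 80%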;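 note: wells of about 30 µL received 25 nL stock; 0% = median of vehicle wells and 100% = reference inhibitor level; the first replicate is given; inactives centre near 10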
* = called active by the depositor; ? = inconclusive. This is a subset; count on the stated rates, not on these rows.

item	Compound	NOMO-1 viab
1	O=C(CSc1ncnc2sc3c(c12)CCCC3)Nc1ccc(F)c(Cl)c1	-2
2	CN1CCN(S(=O)(=O)c2ccc(Br)cc2)CC1	28
3	O=C(CCn1cnc2ccccc2c1=O)Nc1cccc(C(F)(F)F)c1	-24
4	C[C@@H]1CN([C@H](C)CO)C(=O)c2cccc(NC(=O)Nc3ccccc3)c2O[C@H]1CN(C)Cc1ccc(C(F)(F)F)cc1	91*
5	CCn1cc(C(C)NC(=S)Nc2cccc([N+](=O)[O-])c2)c(C)n1 (stereo unspecified)	2
6	C[C@@H]1CN([C@H](C)CO)C(=O)c2cc(NC(=O)CCN3CCOCC3)ccc2O[C@H]1CN(C)Cc1ccc(C(F)(F)F)cc1	-7
7	O=C(CSc1nnnn1-c1ccccc1Cl)Nc1ccc(Br)cc1	-7
8	CC1OC(OC2C(O)C(C)OC(OCC3OC(OC4C(C)OC(Oc5cc(O)c6c(=O)c(O)c(-c7ccc(O)c(O)c7)oc6c5)C(O)C4O)C(O)C(O)C3OC(=O)/C=C/c3ccc(O)cc3)C2O)C(O)C(O)C1O (stereo unspecified)	8
9	O=C(CN1C(=O)CSc2ccccc21)Nc1ccccc1C(=O)N1CCOCC1	20
10	C[C@H]1CN([C@@H](C)CO)C(=O)Cc2cc(NC(=O)C3CCCCC3)ccc2O[C@H]1CN(C)C(=O)Nc1ccc(F)cc1	3
11	COc1ccc(S(=O)(=O)Nc2cccc3c2O[C@@H](CN(C)Cc2ccc(Oc4ccccc4)cc2)[C@H](C)CN([C@H](C)CO)C3=O)cc1	1
12	Cc1ccc(S(=O)(=O)Nc2ccc3c(c2)C(=O)N([C@H](C)CO)C[C@H](C)[C@@H](CN(C)C(=O)c2ccccc2)OCCCC[C@@H](C)O3)cc1	8
13	COc1ccc(F)cc1S(=O)(=O)Nc1ccncc1	-20
14	C[C@H]1CN([C@@H](C)CO)C(=O)Cc2cc(NS(=O)(=O)c3cccs3)ccc2O[C@H]1CN(C)S(=O)(=O)c1ccc(Cl)cc1	-16
15	COc1ccc(-c2cc(=O)c3c(O)cc(O[C@H]4O[C@H](CO[C@@H]5O[C@@H](C)[C@H](O)[C@@H](O)[C@H]5O)[C@@H](O)[C@H](O)[C@H]4O)cc3o2)cc1	-9
16	S=c1oc2ccc(Cl)cc2n1Cc1ccccc1	12
17	C[C@@H]1CCCCO[C@@H](CN(C)S(=O)(=O)c2ccc(F)cc2)[C@@H](C)CN([C@H](C)CO)C(=O)c2cc(NS(C)(=O)=O)ccc2O1	11
18	CC(C)NC(=O)Nc1cccc2c1O[C@H](CN(C)S(=O)(=O)c1ccc(F)cc1)[C@@H](C)CN([C@@H](C)CO)C2=O	0
19	C[C@@H]1CCCCO[C@H](CN(C)C(=O)CCC(F)(F)F)[C@@H](C)CN([C@H](C)CO)C(=O)c2cc(NC(=O)c3ccncc3)ccc2O1	1
20	Cc1noc(C)c1S(=O)(=O)Nc1cccc2c1O[C@H](CN(C)C(=O)Nc1ccc(C(F)(F)F)cc1)[C@H](C)CN([C@H](C)CO)C2=O	29
21	CC1(C)CC[C@]2(C(=O)OC3OC(CO)C(OC4OC(CO)C(O)C(O)C4O)C(O)C3O)CC[C@]3(C)C(=CCC4[C@@]5(C)CC[C@H](OC6OC(C(=O)O)C(O)C(O)C6O)C(CO)(CO)C5CC[C@]43C)[C@@H]2C1 (stereo partly specified)	-1
22	COC(=O)c1ccccc1NC(=O)NC(C)c1cc(OC)ccc1OC (stereo unspecified)	1
23	Cc1cc2nn(-c3ccccc3)nc2cc1NC(=O)C(C)(C)Oc1ccc(Cl)cc1	5
24	COC(=O)c1cc(OC)c(OC)cc1NC(=O)COc1cc(Cl)c(Cl)cc1Cl	?
25	CC(=O)c1ccc(NC(=O)COc2ccccc2C(=O)Nc2ccccc2)cc1	62
26	CC(C)NC(=O)Nc1cccc2c1O[C@@H](CN(C)Cc1ccc(C(F)(F)F)cc1)[C@H](C)CN([C@@H](C)CO)C2=O	78
27	Cc1ccc(S(=O)(=O)Nc2cccc3c2O[C@@H](CN(C)Cc2ccc(-c4ccccc4)cc2)[C@H](C)CN([C@H](C)CO)C3=O)cc1	6
28	C[C@H](CO)N1C[C@H](C)[C@@H](CN(C)Cc2ccc(C(F)(F)F)cc2)Oc2ccc(NC(=O)CCN3CCOCC3)cc2C1=O	-15
29	COC(=O)c1ccc(C(=O)OC)c(NC(=O)COc2ccc(I)cc2)c1	18
30	FC(F)(F)C1=Nc2ccccc2N(c2ccc(Cl)c(Cl)c2)C1	63

Of the compounds above, these contain two or more sulfur atoms.
item	Compound	NOMO-1 viab
1	O=C(CSc1ncnc2sc3c(c12)CCCC3)Nc1ccc(F)c(Cl)c1	-2
14	C[C@H]1CN([C@@H](C)CO)C(=O)Cc2cc(NS(=O)(=O)c3cccs3)ccc2O[C@H]1CN(C)S(=O)(=O)c1ccc(Cl)cc1	-16
17	C[C@@H]1CCCCO[C@@H](CN(C)S(=O)(=O)c2ccc(F)cc2)[C@@H](C)CN([C@H](C)CO)C(=O)c2cc(NS(C)(=O)=O)ccc2O1	11

(list continues)
item	Compound	NOMO-1 viab
31	CCn1c(SCC(=O)Nc2cccc(F)c2)nnc1-c1ccc(OC)cc1	26
32	Cc1ccc(S(=O)(=O)NC(C)C(=O)Nc2ccc(C(N)=O)cc2)cc1 (stereo unspecified)	25
33	C[C@H](CO)N1C[C@H](C)[C@H](CN(C)S(=O)(=O)c2ccc(F)cc2)Oc2ccc(NS(=O)(=O)c3ccc(F)cc3)cc2CC1=O	-2
34	COc1cc2occ(-c3ccc(O[C@@H]4O[C@H](CO[C@@H]5OC[C@](O)(CO)[C@H]5O)[C@@H](O)[C@H](O)[C@H]4O)cc3)c(=O)c2c(O)c1OC	-16
35	CC(O)c1nc2ccccc2n1CCCOc1ccc(Cl)cc1 (stereo unspecified)	46
36	COC(=O)c1ccc(NC(=O)C(C)N(c2ccc(C)c(C)c2)S(C)(=O)=O)cc1 (stereo unspecified)	7
37	C[C@@H]1CN([C@H](C)CO)C(=O)Cc2cc(NS(C)(=O)=O)ccc2O[C@H]1CN(C)Cc1ccc(Oc2ccccc2)cc1	42
38	C[C@H]1CN([C@@H](C)CO)C(=O)Cc2cc(NS(=O)(=O)c3cn(C)cn3)ccc2O[C@@H]1CN(C)S(=O)(=O)c1ccccc1	-15
39	C[C@H](CO)N1C[C@H](C)[C@H](CN(C)C(=O)Nc2cccc3ccccc23)Oc2ccc(NC(=O)Nc3ccc4c(c3)OCO4)cc2C1=O	5
40	C[C@H](CO)N1C[C@H](C)[C@H](CN(C)Cc2ccccc2)Oc2ccc(NS(=O)(=O)c3ccc(Cl)cc3)cc2C1=O	17
41	C[C@H](CO)N1C[C@H](C)[C@H](CN(C)Cc2ccccc2)Oc2ccc(NS(C)(=O)=O)cc2C1=O	-7
42	C[C@H]1CN([C@@H](C)CO)C(=O)c2cccc(NC(=O)Nc3ccc(C(F)(F)F)cc3)c2O[C@H]1CN(C)Cc1ccc(-c2ccccc2)cc1	52
43	Cc1noc(C)c1NC(=O)N(C)C[C@@H]1Oc2ccc(NC(=O)Cn3cnnn3)cc2CC(=O)N([C@H](C)CO)C[C@@H]1C	22
44	COc1cc(/C=C2/SC(=Nc3cc(C)cc(C)c3)NC2=O)cc(Br)c1OC	120*
45	C[C@H]1CN([C@@H](C)CO)C(=O)c2cc(NS(=O)(=O)c3cccs3)ccc2O[C@H]1CN(C)Cc1ccncc1	-13
46	CC(C)NC(=O)N(C)C[C@H]1Oc2ccc(NC(=O)Cc3ccccc3)cc2CC(=O)N([C@@H](C)CO)C[C@H]1C	22
47	COc1ccc(CN(C)C[C@@H]2Oc3ccc(NC(=O)Nc4ccc(OC)cc4)cc3C(=O)N([C@H](C)CO)C[C@@H]2C)cc1	37
48	CC(=O)Nc1nc2ccccc2s1	26
49	CNC(=O)C(=O)NCCc1c[nH]c2ccccc12	-11
50	COc1ccc(NC(=O)Nc2ccc3c(c2)CC(=O)N([C@H](C)CO)C[C@H](C)[C@H](CN(C)Cc2ccc(C(=O)O)cc2)O3)cc1	19
51	Cn1c(=O)c2c(nc(NCc3cccnc3)n2Cc2c(F)cccc2Cl)n(C)c1=O	7
52	COc1ccc(NC(=O)Nc2ccc3c(c2)CC(=O)N([C@@H](C)CO)C[C@H](C)[C@H](CN(C)Cc2ccncc2)O3)cc1	0
53	C[C@H]1CN([C@@H](C)CO)C(=O)c2cccc(NS(=O)(=O)c3ccccc3)c2O[C@@H]1CN(C)C(=O)Nc1ccc2c(c1)OCO2	16
54	COc1ccc(-n2nnnc2SCC(=O)Nc2ccc(F)cc2F)cc1	43
55	CNC[C@@H]1Oc2ccc(NC(=O)Nc3ccccc3)cc2C(=O)N([C@@H](C)CO)C[C@H]1C	-2
56	CC1CN=C(N(C(=O)Nc2ccccc2)c2cccc(C(F)(F)F)c2)S1 (stereo unspecified)	35
57	Cc1ccc(S(=O)(=O)Nc2ccc3c(c2)CC(=O)N([C@H](C)CO)C[C@@H](C)[C@@H](CN(C)Cc2ccc(C(=O)Nc4ccccc4N)cc2)O3)cc1	107*
58	Cc1noc(C)c1NC(=O)Nc1cccc2c1O[C@H](CN(C)Cc1ccc(C(=O)O)cc1)[C@@H](C)CN([C@@H](C)CO)C2=O	12
59	C[C@@H]1CN([C@@H](C)CO)C(=O)c2cc(NS(=O)(=O)c3ccc(F)cc3)ccc2O[C@H]1CN(C)Cc1ccc(C(=O)O)cc1	16
60	C[C@H](CO)N1C[C@H](C)[C@H](CN(C)S(=O)(=O)c2ccccc2)Oc2ccc(N(C)C)cc2C1=O	-18

Next section.
item	Compound	NOMO-1 viab
61	C[C@@H]1CN([C@H](C)CO)C(=O)Cc2cc(NC(=O)C3CCCCC3)ccc2O[C@@H]1CN(C)Cc1ccc(Oc2ccccc2)cc1	72
62	COC1=CC(=O)O[C@@H](/C=C/c2ccccc2)[C@@H]1O	-2
63	Nn1c(C(=O)NCc2cccnc2)nc2ccccc2c1=O	47
64	COc1cc(NC(=S)NCc2ccco2)c(OC)cc1Cl	37
65	C=C(C(=O)O)C(CCCCC(C)O)C(=O)O (stereo unspecified)	0
66	O=C(COc1ccc(C(=O)Nc2cccc(C(F)(F)F)c2)cc1)Nc1ccccc1	-15
67	C[C@H]1CN([C@@H](C)CO)C(=O)Cc2cc(NS(C)(=O)=O)ccc2O[C@@H]1CN(C)C(=O)Nc1cccc2ccccc12	33
68	COc1ccc(S(=O)(=O)Nc2ccc3c(c2)CC(=O)N([C@@H](C)CO)C[C@@H](C)[C@@H](CN(C)C(=O)Nc2c(C)noc2C)O3)cc1	-6
69	CCc1ccc(Nc2nc3ccccc3nc2NS(=O)(=O)c2ccc(NC(C)=O)cc2)cc1	25
70	Cc1ccc(S(=O)(=O)N(CCO)c2cc3c(s2)CCCC3)cc1	30
71	COc1ccc(S(=O)(=O)Nc2ccc3c(c2)CC(=O)N([C@H](C)CO)C[C@@H](C)[C@@H](CN(C)Cc2ccc(C(=O)O)cc2)O3)cc1	-11
72	C[C@H](CO)N1C[C@H](C)[C@@H](CN(C)Cc2ccc(Oc3ccccc3)cc2)Oc2ccc(NC(=O)CCCCCC(=O)Nc3ccccc3N)cc2C1=O	28
73	C[C@@H]1CN([C@@H](C)CO)C(=O)Cc2cc(NS(=O)(=O)c3cn(C)cn3)ccc2O[C@@H]1CN(C)Cc1ccc(Cl)c(Cl)c1	48
74	Cc1ccc(S(=O)(=O)Nc2cccc3c2O[C@H](CN(C)Cc2ccc(-c4ccccc4)cc2)[C@@H](C)CN([C@H](C)CO)C3=O)cc1	41
75	COc1ccc(NC(=O)N(C)C[C@H]2Oc3ccc(NS(=O)(=O)c4ccc(Cl)cc4)cc3CC(=O)N([C@@H](C)CO)C[C@@H]2C)cc1	1
76	Cc1ccc(-c2cc(C(=O)NCc3ccccn3)no2)cc1	-1
77	C[C@@H]1CCCCO[C@@H](CN(C)C(=O)Cc2ccccc2)[C@@H](C)CN([C@H](C)CO)C(=O)c2cc(NS(=O)(=O)c3ccccc3)ccc2O1	17
78	CC(=O)c1cccc(NS(=O)(=O)c2cccc(S(=O)(=O)c3ccccc3)c2)c1	-7
79	Cc1noc(C)c1S(=O)(=O)Nc1ccc2c(c1)C(=O)N([C@H](C)CO)C[C@H](C)[C@@H](CN(C)Cc1ccccc1)O2	19
80	CNC[C@@H]1Oc2ccc(NC(=O)Cn3cnnn3)cc2C(=O)N([C@@H](C)CO)C[C@H]1C	7
81	CC(Oc1ccc(Br)cc1)C(=O)NCc1ccccn1 (stereo unspecified)	3
82	CCOC(=O)c1sc(NC(=O)c2cc(-c3ccccn3)nc3ccccc23)c(C(=O)OCC)c1C	-6
83	Cc1ccc(S(=O)(=O)Nc2cccc3c2O[C@@H](CN(C)Cc2ccc(C(F)(F)F)cc2)[C@@H](C)CN([C@@H](C)CO)C3=O)cc1	17
84	Cc1cc(NC(=O)CN(c2ccc(Cl)c(C(F)(F)F)c2)S(C)(=O)=O)ccc1Br	103*
85	C[C@@H]1CN([C@H](C)CO)C(=O)c2cccc(NC(=O)Nc3ccc(C(F)(F)F)cc3)c2O[C@H]1CN(C)C(=O)Nc1ccc2c(c1)OCO2	116*
86	C[C@H](CO)N1C[C@H](C)[C@@H](CN(C)S(=O)(=O)c2cn(C)cn2)Oc2ccc(NC(=O)Nc3cccc4ccccc34)cc2C1=O	-30

Values in list order from the entries so far.
Compounds 63 to 66 in NOMO-1 viab: 47, 37, 0, -15

A draw from above in order of SMILES length, ascending:
item	Compound	NOMO-1 viab
62	COC1=CC(=O)O[C@@H](/C=C/c2ccccc2)[C@@H]1O	-2
79	Cc1noc(C)c1S(=O)(=O)Nc1ccc2c(c1)C(=O)N([C@H](C)CO)C[C@H](C)[C@@H](CN(C)Cc1ccccc1)O2	19
72	C[C@H](CO)N1C[C@H](C)[C@@H](CN(C)Cc2ccc(Oc3ccccc3)cc2)Oc2ccc(NC(=O)CCCCCC(=O)Nc3ccccc3N)cc2C1=O	28
